RmlCD inh 1536: M. tuberculosis RmlC/RmlD coupled enzyme inhibitors, primary screen, biochemical, compound mixtures, 384-well, from 1536-well plates; dTDP-4-dehydrorhamnose reductase (Mycobacterium tuberculosis (strain ATCC 25618 / H37Rv)) …; RmlC+RmlD coupled enzyme assay, percent inhibition; primary screen in compound mixtures; inhibition, % at 3.6 µM; 0.03% of 160,000 active; AID 1533, 2009; in the data active = inhibition mostly above about 34%, no sharp cut-off; only retested compounds are shown here; note: some results filed as inactive read as strong as hits
Target sequence (P9WH09 whole entry, looked up): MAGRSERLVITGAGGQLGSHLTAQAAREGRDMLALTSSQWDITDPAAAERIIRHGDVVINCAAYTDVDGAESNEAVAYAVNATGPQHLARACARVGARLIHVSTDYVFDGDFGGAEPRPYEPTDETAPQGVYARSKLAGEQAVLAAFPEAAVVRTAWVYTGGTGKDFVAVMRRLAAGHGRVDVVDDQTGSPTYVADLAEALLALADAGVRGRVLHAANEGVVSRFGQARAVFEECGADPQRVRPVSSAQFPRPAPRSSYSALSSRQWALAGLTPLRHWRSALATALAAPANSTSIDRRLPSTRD
Target sequence (P9WH11 whole entry, looked up): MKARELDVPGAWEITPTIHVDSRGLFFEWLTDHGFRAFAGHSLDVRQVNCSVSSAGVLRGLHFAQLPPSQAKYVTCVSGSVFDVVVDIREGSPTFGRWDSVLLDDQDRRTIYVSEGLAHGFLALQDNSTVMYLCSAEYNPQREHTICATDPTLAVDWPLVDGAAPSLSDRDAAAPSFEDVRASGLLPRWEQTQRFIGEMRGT
RmlCD inh 1536 retest: also measured in RmlCD inh 1536; calls as there; inhibition, %; measured here: mean retest inhibition;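 single compounds in two wells; values far above 100% likely come from compound fluorescence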
* = called active by the depositor; x = not tested or not shown.

Results follow in this order: RmlCD inh 1536 | RmlCD inh 1536 retest
COCCCNC(=S)NC1CC2CCCC(C1)N2Cc1ccco1 (configuration not stated)
    31 | 6
CN(C)c1ccc2c3c(ccc(N(C)C)c13)C(=O)OC2
    45 | 10
Cc1ccc(-n2nc(C)c(C(=O)O)n2)c(C)c1
    31 | -4
Cc1ccc(CNS(=O)(=O)c2c(C)n(C)c(=O)n(C)c2=O)cc1
    35 | -3
O=C(NCC(c1cccs1)N1CCOCC1)c1ccc(Cl)c([N+](=O)[O-])c1 (configuration not stated)
    95 | 10
O=C(Nc1ccc2[nH]c(=O)[nH]c2c1)c1c(F)c(F)c(F)c(F)c1F
    34 | -31
CCN=c1scc(-c2ccco2)n1/N=C/c1ccc(OC)c(O)c1
    48 | -19
COc1ccc(OCCSc2nc(C)nc3ccccc23)cc1
    32 | -19
CCC(C)NC(=O)NCc1ccccc1F (configuration not stated)
    82 | 10
COc1ccc(OC)c(NC(=O)C(=O)NNC(=O)C23CC4CC(CC(C4)C2)C3)c1
    79 | -16
O=C(CSc1ncnc2nc[nH]c12)c1ccc([N+](=O)[O-])cc1
    55 | 6
COc1ccc([N+](=O)[O-])cc1N(CC(=O)NCC1CCCO1)S(C)(=O)=O (configuration not stated)
    51 | 8
NC(=O)/C(=C\c1cccnc1)NC(=O)c1ccccc1
    51 | -9
COC(=O)Cc1c(C)c2ccc(OC(=O)c3ccco3)cc2oc1=O
    83* | x
O=C(CN(Cc1ccco1)C(=O)CNS(=O)(=O)c1ccc(Cl)cc1)NCC1CCCO1 (configuration not stated)
    42 | -2
O=C(O)/C=C/c1cccc(OCc2ccccc2)c1
    45 | -13
COc1ccc(/C=C2\SC(=O)N(CCNC(=O)C3CC4C=CC3C4)C2=O)cc1 (configuration not stated)
    59 | -7
CCOC(=O)C1(Cc2cccc(F)c2)CCN(C(=O)Cn2cnnn2)CC1
    37 | -9
NC(=O)c1cccc(N=Cc2cc(Cl)cc(Cl)c2O)c1
    59 | 21
O=C(NC1CCCCC1)c1cc(-c2ccco2)on1
    62 | 3

A run of entries from the list above:
Results follow in this order: RmlCD inh 1536 | RmlCD inh 1536 retest
NC(=O)c1cccc(N=Cc2cc(Cl)cc(Cl)c2O)c1
    59 | 21
O=C(NC1CCCCC1)c1cc(-c2ccco2)on1
    62 | 3

Next part
Results follow in this order: RmlCD inh 1536 | RmlCD inh 1536 retest
Cc1ccc(NC(=O)C2CCC(CNc3c(N4CCC(C)CC4)c(=O)c3=O)CC2)cc1F (configuration not stated)
    30 | -2
Cc1cnn(-c2cc(N/N=C/c3ccccc3)ncn2)c1
    43 | -10
CCOc1ccc2c(c1)nc(SCC(=O)c1cccs1)n2C
    36 | -8
CCn1c(COc2ccc(=O)n(-c3ccccc3)n2)nnc1SCC(=O)OC
    45 | -9
Cc1nnsc1C(=O)NC(C)c1ccccc1 (configuration not stated)
    36 | -10
NC(=O)N/N=C/c1coc2ccc3ccccc3c2c1=O
    74 | -7
CC1=NNC(=O)C1CC(=O)N/N=C/c1cccs1 (configuration not stated)
    44 | -10
CCOc1ccc(Cc2c(Cl)nc(SC)nc2N(C)C)cc1
    42 | -4
O=C(/C=C/c1ccc(OC(F)F)cc1)OCC(=O)N1CCN(C(=O)c2ccco2)CC1
    38 | 4
C=CCn1c(CSCc2ccccc2)nnc1SCC(=O)N1CCN(c2ccccc2)CC1
    65 | -5
O=C(c1ccco1)N1CCN(C(=O)N2CCCC2)CC1
    38 | 6
Cc1cccc(NC(=O)C23CCC(C)(C(=O)O2)C3(C)C)c1 (configuration not stated)
    97 | 9
COc1ccccc1NC(=O)CSc1nc(N)c(C#N)cc1C#N
    58 | -3
O=C(Nc1ccccc1)N1CCN(CCc2ccccc2)CC1
    99 | 8
O=c1cc(CSc2ccc(Cl)cc2)nc(-c2ccccc2)[nH]1
    47 | 13
Cc1ccc(S(=O)(=O)n2c([N+](=O)[O-])cnc2C)cc1C
    34 | 14
N/C(=N\OC(=O)COc1ccc([N+](=O)[O-])cc1)c1ccc(Br)cc1
    52 | 1
CNC(=O)CN(c1ccc(C(C)C)cc1)S(C)(=O)=O
    57 | 1
CCOC(=O)C1CCN(c2c(NCc3ccc(C(=O)N(C)Cc4ccccc4)cc3)c(=O)c2=O)CC1
    47 | 13
Cc1ccc(Cl)cc1NC(=O)c1ccccc1OCC(=O)Nc1ccc(Cl)cc1
    54 | -2
CCCC(=O)Nc1c2c(nn1-c1ccc(OC)cc1)CS(=O)C2 (configuration not stated)
    102 | 8
CCn1cc(C(=O)OC)c(=O)c2ccc(C)nc21
    32 | -5
Cc1[nH]c(C(=O)N/N=C/c2ccc(N(C)C)cc2)c(C)c1C(=O)N/N=C/c1ccc(N(C)C)cc1
    48 | 22
COc1ccc(N2CCc3c(C)nc4c(OC)cccc4c32)cc1
    41 | 0
Cc1nnnn1/C(=C\c1ccccc1)C(=O)OCC(=O)N(C)C1CCS(=O)(=O)C1 (configuration not stated)
    55 | -16
COc1ccc(CCNC(=O)CNC(=O)Cn2ccc3ccccc3c2=O)cc1OC
    36 | -32
O=C(Nc1ccc2c(c1)OCCO2)C1CCN(C(=O)c2ccc([N+](=O)[O-])cc2)CC1
    41 | -15
O=C(NC(=O)c1ccccc1Cl)Nc1ccc(-c2cnco2)cc1
    44 | 11
O=C(CSc1nnc(Cc2ccccc2)o1)c1cc(F)ccc1F
    43 | -12
CN(Cc1ccc(OCC(O)CN2CCCCC2)cc1)Cc1ccnc2ccccc12 (configuration not stated)
    56 | 5

Rewritten as labelled records: 2 of the compounds above.
molecule: CCOc1ccc(Cc2c(Cl)nc(SC)nc2N(C)C)cc1
  RmlCD inh 1536: 42; RmlCD inh 1536 retest: -4
molecule: Cc1nnnn1/C(=C\c1ccccc1)C(=O)OCC(=O)N(C)C1CCS(=O)(=O)C1 (configuration not stated)
  RmlCD inh 1536: 55; RmlCD inh 1536 retest: -16

(continued)
Results follow in this order: RmlCD inh 1536 | RmlCD inh 1536 retest
Cc1n[nH]c(=S)n1/N=C/c1ccccc1
    95 | -9
Cc1ccccc1NC(=O)Cn1c(O)c(N=NC(=O)c2ccccc2O)c2ccccc21
    32 | -4
O=C1CSC2(CN3CCC2CC3)N1 (configuration not stated)
    59 | 0
Clc1ccc(/C=N/NC2=Nc3cccc4cccc2c34)cc1
    35 | -3
COc1ccc(C(=O)C2CCN(C(=S)NCC3CCCO3)CC2)cc1 (configuration not stated)
    57 | -5
COc1ccc(NC(=S)NCCCN2CCOCC2)cc1
    40 | -6
Cc1ccc(NNC(=O)Nc2ccc(Cl)cc2)nn1
    52 | 9
NC(=O)c1nn(-c2ccccc2)nc1N
    79* | 58*
C/C(=N\NC(=S)Nc1c(C)cccc1C)c1ccc(O)cc1
    78 | -18
Cc1cc(C)n(-c2nc(Nc3ccccc3C)nc(-n3nc(C)cc3C)n2)n1
    75 | -1

Continued:
| canonical_smiles | RmlCD inh 1536 | RmlCD inh 1536 retest |
| --- | --- | --- |
| CC(=NCCc1ccccc1)C1=C(O)CSC1=O | 34 | -7 |
| CCC(=O)NC(=S)Nc1ccc2oc(-c3ccc(OC)cc3)nc2c1 | 46 | 2 |
| Cc1noc(C)c1COc1cccc(C(=O)Nc2ccc3c(c2)OCO3)c1 | 35 | -10 |
| CC(C)(C)c1cc(CN(CCO)CCO)c(O)c(C(C)(C)C)c1 | 41 | 3 |
| CCC/C(=N\O)c1c[nH]c2ccccc12 | 88 | -11 |
| Cc1cc(C)c(S(=O)(=O)NC(C)C)c(C)c1-n1cnnn1 | 44 | 7 |
| Cc1nccn1CC(=O)N/N=C/c1ccc(O)c(O)c1 | 109 | 5 |
| CCCOC(=O)C1=C(C)N(C)C(=O)NC1c1cc2c(cc1[N+](=O)[O-])OCO2 (configuration not stated) | 31 | -34 |
| O=C(Cc1cc(=O)[nH][nH]1)N/N=C/c1cccc(Cl)c1Cl | 61 | -12 |
| COc1ccc(NC(=O)c2ccc3nc(-c4ccccc4)c(-c4ccccc4)nc3c2)c(OC)c1 | 66 | 14 |
| COc1ccc(-n2nc(C(=O)NCC(=O)NCc3ccco3)c3ccccc3c2=O)c(OC)c1 | 60 | -11 |
| Cc1cc(C)c2c(N)c(C(=O)c3ccc(Cl)cc3)sc2n1 | 40 | -2 |
| CC(=O)CC(=O)Nc1nc(C)cc(C)n1 | 53 | -3 |
| Cc1cccc(Nc2nc(NCCCN3CCOCC3)nc(N)c2[N+](=O)[O-])c1 | 35 | -6 |
| CC1(C)Cc2ccccc2C(/C(=N/O)C(N)=O)=N1 | 60 | 11 |

Another view of 3 compounds above:
structure: Cc1cc(C)c(S(=O)(=O)NC(C)C)c(C)c1-n1cnnn1
  RmlCD inh 1536: 44
  RmlCD inh 1536 retest: 7
structure: COc1ccc(NC(=O)c2ccc3nc(-c4ccccc4)c(-c4ccccc4)nc3c2)c(OC)c1
  RmlCD inh 1536: 66
  RmlCD inh 1536 retest: 14
structure: COc1ccc(-n2nc(C(=O)NCC(=O)NCc3ccco3)c3ccccc3c2=O)c(OC)c1
  RmlCD inh 1536: 60
  RmlCD inh 1536 retest: -11

(further entries)
| canonical_smiles | RmlCD inh 1536 | RmlCD inh 1536 retest |
| --- | --- | --- |
| Cc1cc(C)n(-c2ccc(C(=O)Nc3ccc(N4CCOCC4)cc3)cc2)n1 | 37 | -31 |
| CC1(C)CC(NC(=O)Cc2ccccc2[N+](=O)[O-])CC(C)(C)N1 | 34 | 6 |
| CC(=O)c1ccc(/C=C/c2nc3ccccc3n2C)o1 | 41 | 35 |
| O=C(COC(=O)c1ccc(S(=O)(=O)N2CCCC2)cc1)NCc1cccs1 | 72 | 5 |
| CN(C)C(=O)/C=C\c1cn(-c2ccccc2)nc1-c1ccc2c(c1)OCCO2 | 47 | -5 |
| Cc1c(N)cc(N)cc1C(=O)O | 50 | 1 |
| Cc1c(/C=N\NC(=O)C2COc3ccccc3O2)c2ccccc2n1C (configuration not stated) | 36 | -11 |
| O=C(CSc1nc2ccccc2s1)Nc1ccc2c(c1)oc1ccccc12 | 38 | -3 |
| Cc1ccc(-n2nc(C)c3c(C)c(CCC(=O)NCc4ccco4)c(C)nc32)cc1 | 34 | -21 |
| O=[N+]([O-])c1cc2c(c(CSc3nnnn3-c3ccc(O)cc3)c1)OCOC2 | 61 | 9 |
| CC1CN(S(=O)(=O)c2cccc(C(=O)OCc3cc(=O)oc4cc(O)ccc34)c2)CC(C)O1 (configuration not stated) | 64* | 99* |
| CC(=O)Nc1sc(/C(C#N)=C/c2ccc(Cl)c(Cl)c2)nc1-c1ccc(C)cc1 | 75* | 39* |
| O=C(CNC(=S)N(Cc1ccccc1)Cc1cccnc1)NCCN1CCOCC1 | 41 | 4 |
| CC(=O)CCn1cc([N+](=O)[O-])nc1C | 50 | -26 |
| Clc1ccc(CO/N=C/c2c(-c3ccccc3)nc3n2CCS3)c(Cl)c1 | 104 | -5 |
| O=C(NN1C(=O)c2ccccc2NC1c1ccoc1)c1ccccc1 (configuration not stated) | 63 | -40 |
| COc1ccc(-c2csc3nc(-c4ccccc4F)oc(=O)c23)cc1 | 90 | -4 |
| Cc1onc(C(=O)N2CCC(C(N)=O)CC2)c1-c1ccccc1Cl | 106 | 2 |
| Cc1ccc(C(=O)C[n+]2cc(-c3ccc(C)cc3)n3c2CCCCC3)cc1 | 37 | -13 |
| Cc1cc(NC(=O)Nc2cccc(Cl)c2)n(-c2ccccc2)n1 | 109 | -4 |
| Cc1ccc2c(Cn3cc(C(F)(F)F)cc(Cl)c3=O)cc(=O)oc2c1 | 44 | 16 |
| O=C(NCCc1c[nH]c2ccccc12)/C(=C/c1cccnc1)NC(=O)c1ccco1 | 89 | -9 |
| O=C(CN1CCN(C/C=C/c2ccccc2)CC1)Nc1cc([N+](=O)[O-])ccc1Cl | 45 | -2 |
| CCCNC(=O)c1ccc(CN2CCOCC2)cc1 | 69 | -13 |
| CCOC(=O)CCc1c(C)c2ccc(OCc3cc([N+](=O)[O-])ccc3OC)cc2oc1=O | 35 | -27 |
| CC[N+](CC)(CC#Cc1ccccc1)CC#Cc1ccccc1 | 51 | -2 |
| CN(C(=O)COC(=O)C(Cc1ccccc1)NC(=O)c1ccccc1)c1ccccc1 (configuration not stated) | 31 | -2 |
| CC1Cc2ccccc2N1C(=O)CSc1nc2ccccc2s1 (configuration not stated) | 106 | -9 |
| CCOC(=O)c1nc(C)sc1-c1ccnn1S(=O)(=O)c1ccccc1C(F)(F)F | 43 | -11 |
| CCCCOC(=O)c1cc(Cl)c(O)c(OC)c1 | 89 | -15 |
| CCOP(=O)(OCC)c1nc(/C=C/c2ccccc2)oc1NCc1ccccc1 | 37 | 46 |
| Cc1noc(NS(=O)(=O)c2ccc(NC(=O)c3cc(-c4ccccc4Cl)nc4ccccc34)cc2)c1C | 53 | -28 |
| O=C(COC(=O)c1ccc(-c2ccc([N+](=O)[O-])cc2)o1)NC(=O)NC12CC3CC(CC(C3)C1)C2 | 47 | 1 |
| Cn1nnc(NC(=O)c2cccs2)n1 | 38 | 1 |
| O=C(COC(=O)c1cccnc1Cl)Nc1nc(-c2ccccc2)cs1 | 91 | -12 |
| CNC(=S)NC1CC2CCCC(C1)N2Cc1ccc(C)cc1 (configuration not stated) | 34 | 6 |
| O=C(O)CSc1nc2ccccc2n1C1CCCCC1 | 96 | 7 |
| Cc1c(Cl)c([N+](=O)[O-])nn1Cc1ccc(C(=O)N/N=C\c2cccc(Br)c2)o1 | 40 | -12 |
| COc1ccc(-n2cnnc2SC(C)C(=O)Nc2cccc([N+](=O)[O-])c2)cc1 (configuration not stated) | 41 | -18 |
| Cc1ccccc1OCc1nc2ccccc2c(=O)n1/N=C/c1cccc([N+](=O)[O-])c1 | 37 | -28 |
| CC(C)(C)Nc1nc(Cl)nc(NCc2ccccc2)n1 | 81 | -7 |
| CCN1CCN(c2cc(C)c3cc(NC(=S)N4CCOCC4)ccc3n2)CC1 | 36 | 5 |
| CC1CCCN(S(=O)(=O)c2cccc(-c3cn4cccnc4n3)c2)C1 (configuration not stated) | 32 | 1 |
| COc1cc(OC)c(OC)cc1/C=C1/C(=O)NC(=O)N(Cc2ccccc2)C1=O | 39 | 15 |
| Cc1ccc(NC(=O)CSc2ccc(-c3ccco3)nn2)c(C)c1 | 48 | 3 |

Not all compounds are listed; count on the stated rates, not on these rows.
